Screens as filed in PubChem.
PV pol inh: poliovirus RdRp elongation inhibitors, primary screen, biochemical, fluorescence polarization, total intensity; 150,000 compounds, 0.66% hits; poliovirus polymerase elongation; active compounds read low; Genome polyprotein (Poliovirus type 1 (strain Mahoney)), P03300; % elongation, % (compound at 16.7 µg/mL); in the data active means % elongation below about 90%; further: some results filed as inactive read as strong as hits
Target sequence (P03300 1749-2209 limits assumed): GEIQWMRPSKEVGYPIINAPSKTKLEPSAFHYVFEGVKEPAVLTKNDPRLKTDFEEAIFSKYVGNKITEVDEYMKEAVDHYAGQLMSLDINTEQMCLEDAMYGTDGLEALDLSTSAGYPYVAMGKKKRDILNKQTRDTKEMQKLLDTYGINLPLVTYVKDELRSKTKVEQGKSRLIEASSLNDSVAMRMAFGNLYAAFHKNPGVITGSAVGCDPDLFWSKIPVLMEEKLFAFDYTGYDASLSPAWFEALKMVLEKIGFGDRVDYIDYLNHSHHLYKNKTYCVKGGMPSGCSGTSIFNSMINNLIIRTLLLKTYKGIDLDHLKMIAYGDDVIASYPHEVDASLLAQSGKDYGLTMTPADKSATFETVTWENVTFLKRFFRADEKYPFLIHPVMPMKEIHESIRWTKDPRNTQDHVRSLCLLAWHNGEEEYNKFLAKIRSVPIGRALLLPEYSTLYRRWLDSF
PV pol inh intensity: further read-out of PV pol inh, marked with its call; % elongation; measured here: total intensity read-out; formula for this scale not given here;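 total fluorescence in place of polarization; lower means less elongation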
* = called active by the depositor. A portion of the library; rates above refer to the full screens.

SMILES	PV pol inh	PV pol inh intensity
CCOc1ccccc1NC(=O)CCn1c(-c2ccc(OC)cc2)cc(C(C)=O)c1C	111	108
COc1c(C)cc(S(=O)(=O)Nc2cccc(-c3ccc(N4CCOCC4)nn3)c2)c(C)c1C	111	113
COc1cccc(CNC(=O)CCCn2c(=O)c3cccn3c3ccc(F)cc32)c1OC	107	111
Cc1nc(-c2ccc(F)cc2)sc1CCNC(=O)c1ccco1	114	111
CC(C)c1nn2c(=O)cc(COC(=O)c3ccccc3Cl)nc2s1	109	111
O=C(Nc1ccccc1F)c1cnc(N2CCCCC2)c2ccccc12	106	99
CCc1ccc(-n2nc(CO)c(C(=O)NCCCCc3ccccc3)n2)cc1	107	110
COc1ccc(S(=O)(=O)NCC(c2ccco2)N2CCN(c3ccc(F)cc3)CC2)cc1C (stereo not given)	103	112
CCOC(=O)c1cc(S(=O)(=O)Nc2ccc(C)cc2Cl)[nH]n1	111	112
CCOc1ccccc1CNC(=O)C1CCCN(S(=O)(=O)c2ccc3c(ccn3C)c2)C1 (stereo not given)	105	115
Cc1ccc(C)c(NC(=O)c2cc(S(=O)(=O)NCc3ccccc3)ccc2F)c1	101	100
Cc1ccc(NC(=O)/C=C/c2ccco2)cc1F	107	114
Cc1cc(C)c2c(-n3cccc3)c(C(=O)NCC(C)c3ccccc3)sc2n1 (stereo not given)	106	114
COc1cc(NC(=O)Cn2ccn(Cc3ccccc3OC)c(=O)c2=O)cc(OC)c1	109	109
CCN(CC)S(=O)(=O)c1ccc2oc(C(=O)N(C)Cc3ccccc3)c(C)c2c1	109	111
CC(=O)Nc1nonc1-c1nnc(SCC(=O)Nc2ccc(C)c(Cl)c2)n1-c1ccccc1	110	106
COc1cc(C(=O)Nc2ccc(-n3c(C)nc4ccccc4c3=O)cc2)cc(OC)c1OC	106	110
CCCCN(CC)CCNC(=O)c1cn(CCOC)c(=O)c2c1c1ccccc1n2C	107	107
COc1ccc(NC(=O)C(C)n2nc(C)c3c(C)n(-c4ccccc4)nc3c2=O)cc1Cl (stereo not given)	115	116
CCOC(=O)c1ccc2c(c1)N(C(CC)C(=O)Nc1ccccc1OC)C(=O)c1ccccc1S2 (stereo not given)	107	115

Another view of some results above:
Each structure is followed by: PV pol inh | PV pol inh intensity
Cc1ccc(NC(=O)/C=C/c2ccco2)cc1F
 : 107 | 114
Cc1cc(C)c2c(-n3cccc3)c(C(=O)NCC(C)c3ccccc3)sc2n1 (stereo not given)
 : 106 | 114
COc1cc(NC(=O)Cn2ccn(Cc3ccccc3OC)c(=O)c2=O)cc(OC)c1
 : 109 | 109
CCN(CC)S(=O)(=O)c1ccc2oc(C(=O)N(C)Cc3ccccc3)c(C)c2c1
 : 109 | 111
CC(=O)Nc1nonc1-c1nnc(SCC(=O)Nc2ccc(C)c(Cl)c2)n1-c1ccccc1
 : 110 | 106
COc1cc(C(=O)Nc2ccc(-n3c(C)nc4ccccc4c3=O)cc2)cc(OC)c1OC
 : 106 | 110

(more compounds)
SMILES	PV pol inh	PV pol inh intensity
Cc1ccc(C(=O)Nc2ccc3nc(SCC(=O)N4CCCc5ccccc54)sc3c2)cc1	110	112
CCc1cccc(NC(=O)Cn2c(=O)c(C(F)(F)F)nc3ccccc32)c1	113	110
Cc1ccc(C)c(Cn2c(CCCNC(=O)C3CCCCC3)nc3ccccc32)c1	110	110
COc1ccc(CNC(=O)COCc2cc(-c3cccs3)on2)cc1OC	107	107
COc1cccc(-c2nn(C)c3sc(C(=O)NCc4cc(OC)ccc4OC)cc23)c1	106	105
COc1cc(NC(=O)CN2C(=O)COc3ccc(S(=O)(=O)N4CCCCC4)cc32)cc(OC)c1	119	114
Cc1ccc(S(=O)(=O)Nc2cc3c(C(=O)OCc4ccccc4)c(C)oc3c3ccccc23)c(C)c1	111	114
CCOc1ccc2nc(NC(=O)c3nc(SCc4ccccc4F)ncc3Cl)sc2c1	110	112
CCc1ccc(NC(=O)CSc2nc3c(sc4ccccc43)c(=O)n2CCCOC(C)C)cc1	111	109
COc1ccccc1N1CCN(C(=O)C2CCN(S(=O)(=O)Cc3ccccc3)CC2)CC1	111	116
CCc1ccc(-c2nc(-c3cc4ccccc4oc3=O)sc2C)cc1	114	105
Cc1cccc(N2CCN(c3nc4ccccc4c4nnc(C)n34)CC2)c1C	105	107
COc1ccc2c(c1)c(CC(=O)Nc1c(C)cccc1C)c(C)n2C(=O)c1ccc(Cl)cc1	108	111
COc1ccc(NC(=O)CSc2ncccc2C(=O)O)cc1OC	104	93
COc1cc(C(=O)N(Cc2ccc(F)cc2)Cc2ccco2)cc(OC)c1OC	103	100
CCOC(=O)c1ccc(NC(=O)C2=C(C)C(=O)OC23CCN(C(C)C)CC3)cc1	100	102
Cc1ccc(C(=O)c2oc3ccccc3c2NC(=O)c2cc(=O)c3ccccc3o2)cc1	101	107
COc1ccc(NC(=O)CSC2=Nc3ccccc3C3=NC(CC(=O)NCCc4ccccc4)C(=O)N23)cc1 (stereo not given)	106	106
CCOC(=O)c1cnc2ccc(OC)cc2c1NCCc1ccc(OC)c(OC)c1	103	106
CCn1c(SCC(=O)Nc2cc(Cl)ccc2OC)nc2c([nH]c3ccccc32)c1=O	109	115

Retrieved one by one from the entries so far, three records:
SMILES	PV pol inh	PV pol inh intensity
COc1ccccc1N1CCN(C(=O)C2CCN(S(=O)(=O)Cc3ccccc3)CC2)CC1	111	116
COc1cc(NC(=O)CN2C(=O)COc3ccc(S(=O)(=O)N4CCCCC4)cc32)cc(OC)c1	119	114
CCOc1ccc2nc(NC(=O)c3nc(SCc4ccccc4F)ncc3Cl)sc2c1	110	112

Some of the entries so far, comma-delimited:
compound,PV pol inh,PV pol inh intensity
COc1ccccc1N1CCN(C(=O)C2CCN(S(=O)(=O)Cc3ccccc3)CC2)CC1,111,116
CCOc1ccc2nc(NC(=O)c3nc(SCc4ccccc4F)ncc3Cl)sc2c1,110,112

New compounds follow
SMILES	PV pol inh	PV pol inh intensity
CCOC(=O)c1scc(-c2ccc(C)cc2)c1S(=O)(=O)Nc1cc(OC)ccc1OC	105	107
CNC(=O)C1CCC(Cn2c(=O)c3sccc3n(CC(=O)NCc3ccccc3)c2=O)CC1 (stereo not given)	107	107
CCOCCCn1c(SCC(=O)Nc2ccc(C(C)C)cc2)nc2c(sc3ccccc32)c1=O	103	102
Cc1ccc(OCC(=O)Nc2ccc(-c3nc4ccc(C)cc4o3)cc2)cc1	108	109
CN1CCN(C(=O)Cn2ncc3c4ccccc4n(Cc4ccc(Cl)cc4)c3c2=O)CC1	129	139
CCOC(=O)c1c(NC(C)=O)c2c3c(sc2n1Cc1nc(-c2ccccc2OCC)oc1C)CCCC3	109	105
COc1ccc(Cn2ccnc2SCC(=O)Nc2cc(C(F)(F)F)ccc2Cl)cc1	112	105
CCN(CC)c1ccc(NS(=O)(=O)c2ccc(-c3cnc(C4CC4)o3)cc2)c(C)c1	108	112
COc1ccc(NC(=O)Cn2c(=O)n(CCCC(=O)NCCc3ccc(C)cc3)c(=O)c3ccccc32)cc1Cl	109	112
COC(=O)CCN(C(=O)c1c(C)oc2ncnc(N3CCOCC3)c12)c1ccccc1	111	98
COc1ccc(-n2c(CC3C(=O)N(C)c4ccc(C)cc43)nc3ccccc3c2=O)cc1 (stereo not given)	127	141
Cc1noc(C)c1S(=O)(=O)N(CC(=O)NCCc1ccc(Cl)cc1)c1ccc(C(C)C)cc1	112	113
COc1ccc2c(c1)c1c(c(=O)n(Cc3ccccc3)c(=O)n1CC(=O)Nc1ccc(C)cc1C)n2C	115	112
CCCc1nnc(NC(=O)c2cc(=O)c3ccccc3o2)s1	112	112
COc1ccc(OC)c(-c2noc(N3CCN(c4ccc(Cl)cc4)CC3)n2)c1	100	108
CCOC(=O)C1=C(CN2CCN(c3ccccc3OC)CC2)NC(=O)NC1c1ccccc1 (stereo not given)	108	108
Cc1cc(F)ccc1NC(=O)C(C(C)C)N1Cc2ccccc2C1=O (stereo not given)	101	96
O=C(COc1ccc(Br)cc1)Nc1cccc2cccnc12	107	111
COc1ccc(OCc2ccc(-c3nc(C#N)c(NCc4ccc(F)cc4)o3)o2)cc1	107	102
O=C(Cn1c(=O)n(-c2ccccc2)c(=O)c2c3c(sc21)CCC3)c1ccc(Br)cc1	112	112
CC(=O)c1ccc(N2CCN(c3ccc4cc(S(=O)(=O)N5CCC(C)CC5)ccc4n3)CC2)cc1	106	110
Cc1cccn2c(=O)c3cc(C(=O)NCC(C)C)sc3nc12	101	102
CCOc1ccc2nc(NC(=O)c3cccn(Cc4ccccc4)c3=O)sc2c1	106	108
COc1ccccc1CN1COc2ccc3c(C)cc(=O)oc3c2C1	107	102
CCOC(=O)c1scc(-c2ccccc2)c1S(=O)(=O)N1CCN(c2ccc(Cl)cc2)CC1	111	116
CC(NC(=O)c1ccc(F)cc1)c1nc2ccccc2[nH]1 (stereo not given)	102	109
Cc1ccc2oc(=O)c(S(=O)(=O)c3ccc(F)cc3)cc2c1	106	107
OC(c1ccccc1)c1nc2ccccc2n1Cc1c(F)cccc1Cl (stereo not given)	111	112
Cc1cccc(CSc2nc3c(sc4ccccc43)c(=O)n2CCC(=O)NC(C)C)c1	110	106
CCOc1ccc(NC(=O)Cn2cc(C(=O)c3ccc(F)cc3)c(=O)c3cc4c(cc32)OCO4)cc1	107	110
O=C(c1ccc(CSc2nc3ccncc3n2Cc2cccc(F)c2)cc1)N1CCCCCC1	106	107
COc1cc(OC)c(NC(=O)Cn2c(=O)c(C(F)(F)F)nc3ccccc32)cc1Cl	104	109
COc1ccccc1NC(=O)Cn1c(SCC(=O)N(C)c2ccccc2)nc2ccccc21	103	95
COc1ccc(NC(=O)CCCN2C(=O)CCn3nc(-c4cn(C)c5ccccc45)cc32)cc1	104	107
Cc1nc2c(c(C)c1CCC(=O)NCc1ccccc1)c(=O)n(C)c(=O)n2C	109	113
CCCC(=O)N1CCN(c2nc3ccc(F)cc3s2)CC1	99	106
COc1ccc(CCN2C(=O)CN(C3CCCCCC3)C(=O)C2c2ccc(OC(C)C)c(OC)c2)cc1OC (stereo not given)	111	110
Cc1ccc2oc(=O)c(-c3nc(-c4cccs4)no3)cc2c1	117	123
CCc1ccc(Nc2nc3ccccc3nc2NS(=O)(=O)c2ccccc2)cc1	108	111
CCOc1ccc(CCNC(=O)c2ccc3c(Cl)c4c(nc3c2)CCCC4)cc1	103	104
Cc1cc(Cl)ccc1OCc1cc(=O)n2c3c(sc2n1)CCCC3	113	113
CCc1ccc(OCCCn2c(-c3ccc(Cl)cc3)nc3ccccc3c2=O)cc1	102	102
Cc1ccc(CN2C(=O)C3(c4ccccc42)N(c2cccc(C(F)(F)F)c2)C(=O)CS3(=O)=O)cc1 (stereo not given)	106	110
COc1cc2nc(NCC(C)c3ccccc3)n3nc(-c4ccccc4)nc3c2cc1OC (stereo not given)	105	103
CCOC(=O)c1sc2cccc(F)c2c1S(=O)(=O)N1CCN(c2cccc(Cl)c2)CC1	102	107
COc1ccc(NC(=O)CC2Nc3ccccc3NC2=O)cc1 (stereo not given)	106	109
CCOc1ccc(C(=O)Nc2ccc3oc(-c4ccc(C)cc4C)nc3c2)cc1Br	111	112
Cc1c(C)n(C)c2ccc(C(=O)NCc3cccc(F)c3)cc12	108	114
Cn1nnnc1SCCCNCc1ccc(-c2cccc(Cl)c2)o1	95	92
